# High-throughput results: PubChem BioAssay, National Center for Advancing Translational Sciences (NCATS)
# Sfp PPTase inh: Sfp phosphopantetheinyl transferase inhibition. Q9F4F7. Biochemical Sfp PPTase activity, qHTS. Potency, µM, without a hit: max response, negative = inhibition, most hits filed as inhibitors. hit rate 3.5% among 310,000; active means well fitted inhibition curve with a large enough effect; inconclusive means small, poorly fitted or top-dose-only effect, or another doubt; inactive means no such curve, though single readings can be large or run the other way;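 further: the enzyme is Sfp with the accession as filed and its product quenches rhodamine fluorescence; potency means the concentration at half of the fitted maximal effect; 0% = enzyme reaction without inhibitor and -100% = no enzyme wells; top concentration of the series not given in the record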
#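 Compounds were incubated with enzyme (final 15 nM) for 15 min at room temperature before substrate addition started the reaction. Fluorescence at 525 nm excitation, 598 nm emission was recorded immediately and after 30 minutes.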
# PINK1 expr mod: modulators of PINK1 expression | PINK1 immunofluorescence, high-content cytometry, 24 h | Potency, µM (doses to about 76.6 µM), without a hit: at the highest dose activation (PINK1 increase), actives largely listed as activators | hit rate 0.2% among 410,000 | AID 624263; active = well fitted activation curve with a large enough effect; inconclusive = small, poorly fitted or top-dose-only effect; inactive = flat fitted curve, though single readings scatter; cell line not stated here;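 further: potency means the concentration at half of the fitted maximal effect; % of control where 0% means no effect; nearly all actives have a fitted effect of over 65% in size; a mitochondrial uncoupler was the plate control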
#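 Fluorescence from anti-PINK1 antibody, together with nuclear and cell stains, was scanned on a laser-scanning cytometer. Before staining, stable-line cells were incubated 24 hours with compounds at 5 concentrations; primary antibody 12 h at 10 degrees C.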
# TRPML1 inh: inhibitors of human TRPML1 channel | Q9GZU1 | TRPML1-inducible cells, Ca2+ dye fluorescence, FDSS; stronger effect = lower value; inhibition of EC80 agonist-evoked calcium signal | activity change, negative = inhibition, % (concentration not given with the values) | hit rate 0.02% among 390,000 | AID 624415; in the data active means activity change below about -50%; inconclusive means about -30% to -50%; inactive means above about -30%;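 further: stimulus is agonist 54-4 at its EC80 concentration; on the % scale 0 is the no-effect control and ±100 the full control effect; compound concentration not given in the record; the text of the record puts the active cut at -80%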
#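 Calcium fluorescence in TRPML1-DL cells induced overnight with Tet: a 110 s read after compound pin addition, then a 110 s antagonist read after challenge with 54-4 at 4 uM final (EC80).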
# Menin-MLL FL inh: displaces fluorescein MLL peptide from human menin; Fluorescence polarization, fluorescein-MLL peptide displacement from menin; FP activity change, % at 61.4 µM; 290,000 tested, under 10 active; AID 1766; inconclusive = falling polarisation curve, or a change in total fluorescence; inactive = total fluorescence flat and polarisation flat or rising; no compound was filed as active; the % refers to the polarisation; negative = inhibition;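 further: % of control where 0% means no effect; inhibitors lower the polarisation; unlabelled MLL peptide was the positive control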
# ClpP mod: qHTS Assay for Activators of ClpP; purified B. subtilis ClpP, FRET peptide cleavage, 20 min; Potency, µM (titrated, usually from 57.5 µM), for inactives: top-dose activity change, negative = active; hit rate 1.9% among 340,000; active = well fitted falling curve with a large enough effect; inconclusive = small, poorly fitted or top-dose-only effect; inactive = no such curve, though single readings can be large or run the other way; further: potency means the concentration at half of the fitted maximal effect; the source files actives as falling curves though it sought activators and does not explain the sign; nearly all actives have a fitted effect of over 65% in size; many hits overshoot -100%
# Target sequence (P80244 whole entry, looked up): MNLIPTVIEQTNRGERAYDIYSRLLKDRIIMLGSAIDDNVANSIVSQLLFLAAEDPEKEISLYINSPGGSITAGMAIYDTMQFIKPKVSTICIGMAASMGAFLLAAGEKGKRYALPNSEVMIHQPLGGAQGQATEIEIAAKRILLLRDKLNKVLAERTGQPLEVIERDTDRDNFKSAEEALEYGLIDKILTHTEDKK
#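 Purified B. subtilis ClpP, 10 microg/mL final in Tris/HCl pH8 with KCl, BSA, glycerol and Tween-20, cleaved an Abz/nitrotyrosine-quenched decapeptide. Fluorescence (ex 320, em 430) was read at 0 and 20 min at room temperature. Delta was normalized to 5.8 microM ADEP and DMSO/no-enzyme controls.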
# TRPV1 potentiator: enhances activation of the human vanilloid receptor TRPV1; hit rate 0.02% among 320,000; TRPV1-expressing cells, Fluo-8 calcium influx, capsaicin EC20 potentiation; host cell line not named in the record; control for the full effect not named in the record; potentiation, % at 8.33 µM; AID 540277; active means potentiation above 80%; inconclusive means 30% to 80%; inactive means below 30%; further: 0% is about no effect
# Target sequence (Q8NER1 whole entry, looked up): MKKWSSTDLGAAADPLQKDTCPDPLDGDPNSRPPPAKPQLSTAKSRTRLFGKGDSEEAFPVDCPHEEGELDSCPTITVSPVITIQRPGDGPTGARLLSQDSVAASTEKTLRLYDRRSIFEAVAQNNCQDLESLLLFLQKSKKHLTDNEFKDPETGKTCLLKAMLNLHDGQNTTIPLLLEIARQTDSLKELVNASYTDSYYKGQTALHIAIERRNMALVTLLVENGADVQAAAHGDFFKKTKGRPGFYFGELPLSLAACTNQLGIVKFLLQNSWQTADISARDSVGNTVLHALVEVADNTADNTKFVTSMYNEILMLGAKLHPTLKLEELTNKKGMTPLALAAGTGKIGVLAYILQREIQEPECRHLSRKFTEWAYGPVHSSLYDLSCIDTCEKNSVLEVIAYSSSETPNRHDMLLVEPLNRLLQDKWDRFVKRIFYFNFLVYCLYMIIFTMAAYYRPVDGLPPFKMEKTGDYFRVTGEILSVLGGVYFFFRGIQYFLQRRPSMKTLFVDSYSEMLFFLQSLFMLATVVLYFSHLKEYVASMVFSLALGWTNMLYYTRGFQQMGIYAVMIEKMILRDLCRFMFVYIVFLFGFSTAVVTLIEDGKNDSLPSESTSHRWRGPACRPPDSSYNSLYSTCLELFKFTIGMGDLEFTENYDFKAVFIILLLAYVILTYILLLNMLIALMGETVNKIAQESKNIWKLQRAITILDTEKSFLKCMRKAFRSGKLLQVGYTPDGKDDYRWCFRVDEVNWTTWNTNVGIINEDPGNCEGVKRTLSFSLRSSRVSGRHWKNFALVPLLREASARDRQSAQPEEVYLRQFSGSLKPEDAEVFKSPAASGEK
#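 Fluo-8 calcium influx in TRPV1-expressing cells, kinetic read (ex 480/em 520 nm). Compound added and read 3 min for agonist activity, followed by capsaicin at EC20 final and 2 min further read for enhancement.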
# TRPML1 ag: agonists of human TRPML1 channel; AID 624414; TRPML1-expressing cells, Ca2+ dye fluorescence, FDSS; host cell line not named in the record; reference of the full effect not given here; hit rate 0.12% among 410,000; Q9GZU1; activation, % (no concentration beside the values); in the data active = activation above about 50%; inconclusive = about 30% to 50%; inactive = below about 30%; further: 0% is about no effect; the text of the record puts the active cut at 80%
#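 Tetracycline-induced TRPML1-DL cells are seeded and incubated overnight before loading with a no-wash Ca2+ dye and quencher. Agonist activity is taken from the 110 s fluorescence read following compound pin-transfer on an FDSS, before EC80 54-4 challenge.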
# * marks the source's active call; other numbers are inactive results; ? = inconclusive; nt = not tested or not shown; & = joins results of further samples; [ ] = dose if it differs, or a comment.
SMILES,Sfp PPTase inh,PINK1 expr mod,TRPML1 inh,Menin-MLL FL inh,ClpP mod,TRPV1 potentiator,TRPML1 ag
COC(=O)C(C)Sc1ccc2nnc(-c3ccccc3)n2n1 (stereo not given),10%,2.4%,2,-5.6,?,-4,1.5
COc1ccc(OC)c(NC(=O)CSCC(=O)O)c1,8%,0.5%,33,5.5,0.5%,-4,-0.5
COc1ccc(C(=O)NNC(=O)c2ccc(S(=O)(=O)N3CC(C)OC(C)C3)cc2)cc1 (stereo not given),5%,2.3%,-10,-4.6,0.8%,-6,0.3
CCOC(=O)c1cc(-c2ccc(C)c([N+](=O)[O-])c2)nc2c1c(=O)n(C)c(=O)n2C,18%,nt,nt,0.3,nt,-21,nt
COc1cccc(C(=O)Nc2cc3c(cc2C(C)=O)OCCO3)c1,-7%,9.3%,8,1.6,?,-1,1.9
O=C(COC(=O)c1ccc(O)cc1)Nc1cc(S(=O)(=O)N2CCCCCC2)ccc1Cl,nt,?,5,nt,-1.8%,nt,-0.2
CCC(=O)Nc1nc(CC(=O)Nc2ccccc2OC)cs1,12%,-1.9%,-11,0.8,0.4%,27,0.5
O=C(NCC1COc2ccccc2O1)C1CCN(S(=O)(=O)c2ccccc2)CC1 (stereo not given),nt,0.0%,11,nt,0.5%,nt,2.7
CCC(CC)NC(=O)c1cc([N+](=O)[O-])ccc1N1CCOCC1,4%,-1.6%,-9,6.8,0.4%,-7,2.9
CC(C)c1ccc(NC(=O)COc2ccc(C3SCCS3)cc2)cc1,20%,1.9%,9,-0.6,0.7%,-56,-0.5
Cc1nn(S(=O)(=O)c2ccc(F)cc2)c(C)c1S(=O)(=O)N1CCOCC1,6%,-0.6%,-2,-1.1,-0.5%,-4,-0.4
COc1ccc(CCNC(=O)c2ccc3c(c2)NC(=O)C(N2CCOCC2)S3)cc1OC (stereo not given),6%,-1.1%,-3,1.1,-1.2%,19,0.0
O=C(NCC1CCCCC1)c1cccc(S(=O)(=O)N2CCCC2)c1,nt,-1.9%,27,nt,-10%,-10,0.1
COc1cccc(C2=NOC(C(=O)Nc3ccc(C(C)=O)cc3)C2)c1 (stereo not given),6%,-0.9%[38.3 µM],-16,3.4,-3.9%,-31,0.4
Cc1ccc(/C=C(\C#N)C(=O)NCC2CCCO2)o1 (stereo not given),4%,-0.2%,2,?,-1.6%,-9,2.8
NC(=O)c1ccc(NC(=O)CNCc2ccccc2Cl)cc1,15%,0.4%,-12,-0.6,nt,-8,-0.1
CCOC(=O)c1cn(-c2ccc([N+](=O)[O-])cc2)c2cc(Cl)c([N+](=O)[O-])cc2c1=O,9%,5.2%,6,1.8,-2.2%,-2,0.2
COc1ccnc(NCc2cccnc2)c1C#N,19%,6.7%[38.3 µM],2,3.1,32µM*,-5,-0.2
O=C(O)COCC(=O)N1CCN(C2c3ccccc3-c3ccccc32)CC1,8%,-0.8%,0,-0.9,nt,11,-0.4
CCNC(=S)NNC(=O)c1cc(C2CC2)nc2ccccc12,18%,0.4%[38.3 µM],-10,-0.6,4.9%,-5,-0.3
CC(C(=O)Nc1ccc(Cl)cc1)c1ncc(C(F)(F)F)cc1Cl (stereo not given),3%,16%[38.3 µM],-12,-3.2,-0.2%,-5,1.3
Cc1ccccc1CNS(=O)(=O)c1ccccc1[N+](=O)[O-],11%,-0.8%,-1,0.7,nt,9,-0.8
Nc1ccc(-c2n[nH]c(=O)c3ccccc23)cc1N,14µM*,-2.0%[38.3 µM],-10,4.0,-15%,8,-0.3
CCOc1cc(CNC(=O)c2ccc3c(c2)N(C)C(=O)C2CCCCN32)ccc1OC (stereo not given),nt,2.3%,-6,nt,-6.4%,nt,0.8
CCCCc1ccc(/C=C2/C(=O)ON=C2c2ccccc2)s1,-11%,3.6%,-6,1.9,-2.7%,-14,1.4
O=C(CCN1C(=O)COc2ccccc21)NCCN1CCN(c2ccccc2F)CC1,10%,nt,-5,7.7,1.2%,9,0.1
Cc1ccc(C(=O)NC2CC(C)(C)NC(C)(C)C2)cc1C,?,-0.6%,22,-2.7,0.5%,1,-0.1
c1ccc(-c2cc3c(ccc4nonc43)nn2)cc1,25%,-0.1%,24,5.4,-0.1%,-7,1.0
CN(C)/C=N/c1cc(=O)[nH]c(=O)n1C,4%&9%,-0.1%,-5,-2.1&1.5,1.2%,-6,-0.4
O=C(Cn1ncc2c([nH]c3ccccc32)c1=O)Nc1cccnc1,-9%,3.2%,-10,-3.1,4.1%,1,0.0
Cc1ccc2c(c1)C(=O)CC1(CCCC1)O2,2%,0.7%,7,0.7,-0.4%,3,-0.6
Cc1ccc(OCc2nnc(SCC(=O)Nc3nccs3)n2-c2ccccc2)cc1C,11%,8.7%,5,-0.2,-2.4%,6,-0.6
COc1ccc(/C=C/C(=O)NCC(=O)N=Nc2c(O)[nH]c3ccc([N+](=O)[O-])cc23)cc1,4%,0.0%,-2,-5.9,nt,8,-0.4
CCOc1ccc(NC(=O)C(CC(=O)O)Cc2ccccc2)cc1 (stereo not given),13%,0.6%,-7,1.4,nt,-5,-0.5
CC(O)c1nc2ccccc2n1C(C)c1ccccc1 (stereo not given),10%,-1.7%,7,0.9,0.1%,19,0.1
COc1ccc2c(c1)cc1c(=O)n(CC(=O)NC3CCCCC3)nc(C)n12,nt,0.7%,1,nt,-8.1%,nt,0.4
Nc1ncnc2c1ncn2[C@@H]1O[C@H](CNCc2c(OCc3ccccc3F)ccc3ccccc23)[C@@H](O)[C@H]1O,nt,1.3%,1,nt,-0.7%,nt,-0.4
COC(=O)C(C)n1nc(C)n(-c2ccc(C)cc2)c1=O (stereo not given),11%,-13%[38.3 µM],8,-0.1,-1.6%,3,-0.2
Nc1nnc(-c2ccncc2)s1,11%,-19%[38.3 µM],-8,-0.1,?,-2,0.1
COc1ccc(C(=O)N2CCCCC2c2cc(C(=O)Nc3ccc(F)c(Cl)c3)no2)cc1 (stereo not given),nt,2.3%,nt,nt,-8.9%,nt,0.0
CCCCC(=O)N(c1ccc(C(=O)O)cc1)c1nc(-c2ccc(Cl)cc2)c(CC)s1,2%,0.8%,-12,-0.7,0.9%,9,-0.3
O=C1NC[C@H](CCCCN2C[C@H](Cc3ccc(O)cc3)N(Cc3ccccc3)C(=O)C2=O)N(Cc2ccccc2)C1=O,nt,0.1%,nt,nt,1.9%,nt,-0.8
COc1ccc(CN2C(=O)c3ccccc3C(/C=N/OCc3ccc(Cl)cc3)C2=O)cc1 (stereo not given),19%,?,4,4.6,?,?,1.4
COc1ccc(CCNC(=O)c2cn(C)c3ccc(S(=O)(=O)N4CCOCC4)cc3c2=O)cc1OC,11%,-0.2%&3.7%,1&-11,nt,-0.3%&2.4%,-11,-0.1&-0.4
O=C1Nc2ccccc2N(O)N1c1cc(-c2cccc(Cl)c2)no1,20%,0.6%,7,4.2,-1.6%,5,0.2
CCOC(=O)N1CCN(C(=O)CN(C)S(=O)(=O)c2ccc3c(c2)C(C)(C)C(=O)N3C)CC1,18%,-2.2%,27,1.0,-0.7%,3,1.7
Cc1cccc(NC(=O)c2cc([N+](=O)[O-])ccc2Cl)c1O,11%,-0.5%,18,-1.1,nt,-17,-1.2
Cc1ccc(CN2CCN(C3CCN(C(=O)c4ccc(C)cc4)CC3)C(=O)C2=O)cc1,nt,1.6%,11,nt,0.2%,nt,-0.7

# Filtered by structure: the compounds so far containing a cyano group (two)
SMILES,Sfp PPTase inh,PINK1 expr mod,TRPML1 inh,Menin-MLL FL inh,ClpP mod,TRPV1 potentiator,TRPML1 ag
Cc1ccc(/C=C(\C#N)C(=O)NCC2CCCO2)o1 (stereo not given),4%,-0.2%,2,?,-1.6%,-9,2.8
COc1ccnc(NCc2cccnc2)c1C#N,19%,6.7%[38.3 µM],2,3.1,32µM*,-5,-0.2

# The results go on:
SMILES,Sfp PPTase inh,PINK1 expr mod,TRPML1 inh,Menin-MLL FL inh,ClpP mod,TRPV1 potentiator,TRPML1 ag
CCOC(=O)C(=CNc1cccc(N)n1)C(=O)OCC,15%,2.2%,1,0.9,-11%,-8,0.9
N#C/C(=C\c1ccc(O)c(O)c1)C(=O)Nc1cccc2ncccc12,-27%,-0.1%,-10,?,?,-3,1.3
Cc1[nH]nc2c1/C(=N\O)CC(C)(C)C2,12%,0.5%,-25,1.3,-1.9%,-4,0.3
Cn1cc([N+](=O)[O-])c(C(=O)NCc2ccccc2)n1,8%,0.2%,16,-1.7,-1.0%,3,0.2
Cc1ccccc1-n1c(SCC(=O)N(C)C2CCS(=O)(=O)C2)nnc1-c1ccncc1 (stereo not given),13%,-0.4%,3,0.7,nt,-3,0.5
CCN=C1SC(C(=O)Nc2cccc(Br)c2)CC(=O)N1CC (stereo not given),19%,6.2%,10,6.9,3.7%,-8,0.5
Nc1nc(=S)[nH]c2n[nH]nc12,nt,0.3%,nt,nt,-1.8%,nt,-0.1
O=C(NCCNC(=O)c1ccc(F)cc1)c1ccc(F)cc1,nt,-1.7%,38,nt,nt,nt,0.2
CCOC(=O)C1CCCCN1S(=O)(=O)c1cc2c(cc1C)NC(=O)CO2 (stereo not given),13%,1.9%,-1,-4.9,-0.3%,-19,1.0
O=[N+]([O-])c1cccc(-c2c(-c3ccccc3)ncc3ccc(F)cc23)c1,nt,1.8%,27,nt,-2.4%,20,2.8
CCC(C)NC(=O)C(=O)NCC1CCCN1CC (stereo not given),18%,-2.4%,13,-3.0,-0.4%,10,0.2
Brc1csc(CN2CCc3nc(Nc4ccccc4)ncc3C2)c1,nt,1.0%,7,nt,-17%,nt,2.2
CCN(CC)S(=O)(=O)c1ccc(Cl)c(NC(=O)COC(=O)c2ccc(O)cc2)c1,-11%,?,-1,3.3,nt,-4,0.5
CCn1c(C(=O)Nc2cc(C)cc(C)c2)cc2sc(Cl)cc21,nt,-1.1%,9,nt,?,nt,2.7
CC(C)c1ccc(Nc2cc(C(=O)NC3CCCCC3)c3ccccc3n2)cc1,nt,0.2%,-8,nt,?,nt,0.6
COc1ccccc1N1CCN(CCN2C(=O)C3CCCCN3C2=O)CC1 (stereo not given),-10%,-1.3%,-6,-11,32µM*,-4,-1.3
CCCn1c2ccccc2c2cnn(CC(=O)NCCc3ccc(OCC)c(OCC)c3)c(=O)c21,nt,14%,9,nt,-13%,nt,1.9
O=S(=O)(O)c1cc(Cl)cc(N=Nc2ccc(O)cc2O)c1O,nt,-0.3%,-24,nt,-1.3%,nt,1.5
